Compound activity (PubChem BioAssay)
VACV mCherry inh: qHTS for Stage-Specific Inhibitors of Vaccinia Orthopoxvirus: mCherry Reporter Primary qHTS; AID 720579, 2013; Vaccinia virus mCherry reporter infection, fluorescence; about a quarter of the inactives have no number; Potency, µM (highest dose often 36.5 µM), without a hit: top-dose activity change, negative = inhibition, usual class: inhibitors; actives 0.63% (n = 310,000); active = well fitted inhibition curve with a large enough effect; inconclusive = small, poorly fitted or top-dose-only effect; inactive = no such curve, though single readings can be large or run the other way; tested in A549 cells; note: nearly all actives have a fitted effect of over 35% in size; inactives centre near -10
VACV Venus inh: qHTS for Stage-Specific Inhibitors of Vaccinia Orthopoxvirus: Venus Reporter Primary qHTS; Vaccinia virus Venus reporter expression, fluorescence; Potency, µM (top dose mostly 36.5 µM), inactives show top-dose activity change, negative = inhibition, hits mostly inhibitors; actives 0.46% (n = 330,000); active means well fitted inhibition curve with a large enough effect; inconclusive means small, poorly fitted or top-dose-only effect; inactive means no such curve, though single readings can be large or run the other way; tested in A549 cells; note: nearly all actives have a fitted effect of over 30% in size; inactives centre near -10
Active calls of the source: *; i = inactive; ? = inconclusive; nt = no result given; [ ] = dose if it differs, or a comment. % is set by controls: 0 for no effect and ±100 for the full control effect; potency is the fitted concentration of half-maximal effect.

The line under a structure holds: VACV mCherry inh | VACV Venus inh
N#C/C(=C\c1ccccc1)C(=O)NNS(=O)(=O)c1ccc(Br)cc1
    -16% | -4%
COc1ccccc1CNc1ncnc2c1nnn2Cc1ccccc1
    -13% | -9%
N#C/C(=C\c1ccccc1)C(=O)N(c1ccccn1)C1CCCCC1
    -4% | -15%
COc1ccc2cc(C(=O)C3CCCN(C(=O)c4cncs4)C3)ccc2c1 (stereo not given)
    -3% | -6%
N#Cc1ccc(NC(=O)NN2CCCCCC2)cc1
    -29% | -17%
Nc1ccn([C@@H]2O[C@H](C(=O)N3CCSC3)[C@@H](O)[C@H]2O)c(=O)n1
    51%[activator] | 2%
CCCCC/C=C\C/C=C\C/C=C\C/C=C\CCCCCC(=O)NCCO
    i[3.33 µM] | -9%[3.33 µM]
Cc1ccsc1C(=O)OCC(=O)NC1CCCC(C)C1C (stereo not given)
    -5% | -16%
COc1ccc(C(=O)CCS(=O)(=O)c2ccc(C)cc2)cc1
    ? | -28%
O=C1N/C(=N/c2ccccn2)SC1Cc1ccccc1 (stereo not given)
    -15% | -14%
COc1cccc(-c2cnc(C(O)c3cc(C)ccc3C)[nH]2)c1 (stereo not given)
    -21% | -7%
COCOc1ccc(-c2ncc(OCCN3CCCC3=O)nc2NC(=O)c2cc3ccccc3s2)cc1
    35%[activator] | -10%
Cc1nn(Cc2ccc(F)cc2)c2sc(C(=O)Nc3ccccc3N3CCOCC3)cc12
    -14% | -5%
Cc1cccc(OCC(=O)Nc2c(C(=O)N3CCN(c4ccccc4F)CC3)oc3ccccc23)c1
    -5% | -7%
COc1ccccc1N(CC(=O)N(c1ccccc1)C(C)C)S(=O)(=O)c1cccs1
    -4% | -1%
CCN1C(=O)[C@@H]2[C@@H](c3ccc(-c4ccc(OC)cc4)cc3)N3CCCC[C@@]3(C(=O)OC)[C@@H]2C1=O
    -15% | -13%
CC1(C)CC(=O)C2=C(C1)OC(N)=C([N+](=O)[O-])C2c1ccc(C#N)s1 (stereo not given)
    6% | 9%
CCOC(=O)c1c(C)sc2c1N(C(=O)CN1CCOCC1)c1cc(Cl)ccc1S2
    nt | ?
CC1(Oc2ccc(Cl)cc2)CCN(Cc2cccn2-c2nccs2)C1 (stereo not given)
    -8% | -6%
CNCCOc1ccc(Cl)c(Cl)c1
    -23% | -17%

One compound at a time, as listed above. Order of screens: VACV mCherry inh | VACV Venus inh
CNCCOc1ccc(Cl)c(Cl)c1 reads -23% | -17%
Cc1cccc(OCC(=O)Nc2c(C(=O)N3CCN(c4ccccc4F)CC3)oc3ccccc23)c1 reads -5% | -7%

Continuation.
The line under a structure holds: VACV mCherry inh | VACV Venus inh
NS(=O)(=O)c1ccc(CCNC(=O)CCc2nc3ccccc3s2)cc1
    i | -9%
CCOC(=O)NC(NCc1ccccc1)(C(F)(F)F)C(F)(F)F
    -13% | -8%
CCOC(=O)c1sc2nc(C)nc(SC(C)C(=O)N(C)c3ccccc3)c2c1C (stereo not given)
    -11% | -6%
O=C(CNC(=O)c1ccccc1F)OCC(=O)N1CCCc2ccccc21
    -11% | -5%
O=C(NC(=O)c1ccc(Cl)cc1)OC1CCCCC1
    i | 0%
Cc1ccc(N2CC(C(=O)N3CCC(C(=O)Nc4nncs4)CC3)CC2=O)cc1 (stereo not given)
    -13% | -10%
CC[C@@H](C)[C@@H](C(=O)N1CCN(C(=O)OC(C)(C)C)CC1)n1cc(CCCCNC(=O)OC(C)(C)C)nn1
    -2% | -3%
COc1ccc(NS(=O)(=O)c2ccc(C)c(C(=O)NCCCN3CCCC3=O)c2)cc1
    i | -8%
N/C(=N\O)c1ccc(N2CCN(c3ncccc3C(F)(F)F)CC2)nc1
    -21%[7.34 µM] | 2%[7.34 µM]
CC(=O)Nc1ccc2nc(CN3CCN(CC=C(C)C)C(CCO)C3)ccc2c1 (stereo not given)
    i | 8%
COc1ccc(S(=O)(=O)N(C)[C@H]2C[C@H]3c4cc(-c5ccccc5)ccc4CCN3C(=O)[C@H]2[C@H](C)O)cc1
    ? | -24%
CN1CCN(C(=O)C2CCC(=O)N(CCc3cccc(F)c3)C2)CC1 (stereo not given)
    i | -9%
Cc1ccc(F)cc1NC(=O)CN1C(=O)NC2(CCCc3ccccc32)C1=O (stereo not given)
    -27% | -18%
COc1ccc(C(N)c2csc(NC(=O)Nc3cccc(C(F)(F)F)c3)n2)cc1 (stereo not given)
    ? | ?
O=C(CCNC(=O)C1CCN(S(=O)(=O)c2ccccc2)CC1)NCc1ccccc1Cl
    -23% | -5%
Cc1ccc(CNC(=O)c2ccc3c(O)c(S(=O)(=O)c4ccc(Cl)cc4)c(=O)[nH]c3c2)cc1
    -3% | -2%
COc1cc2nc(NC(=O)c3ccc(S(=O)(=O)N4CCCC4)cc3)sc2cc1OC
    -4% | 3%
C[C@H](c1ccccc1)N1C[C@H](COCc2ccccc2)Oc2cc(N3CC[C@@H](O)C3)ccc2S1(=O)=O
    -17% | -29%
CC1=NC(C)(C)Cc2c(C)cccc21
    -24% | -13%
Cc1ccc(C(=O)NNC(=O)c2cccc(Br)c2)cc1
    -1% | -27%
CCCCCCCCCCCCCCC(O)C[N+](C)(CCO)CCO (stereo not given)
    -20% | ?
COc1ccc(C(=O)Nc2ccc3ccccc3c2)cc1OC
    -13% | -10%
CN1CCN(C(CNS(=O)(=O)c2ccc(Br)cc2)c2ccc3c(c2)OCO3)CC1 (stereo not given)
    -19% | ?
O=C(Nc1nc2c(s1)CCCC2)c1ccc(N2C(=O)CCC2=O)cc1
    -7% | -10%
COc1ccc(/C=N/NS(=O)(=O)c2ccccc2)cc1OS(=O)(=O)c1ccccc1
    nt | -1%
COc1ccc(NC(=O)C2CCN(S(C)(=O)=O)CC2)cc1
    -15% | 1%
CC(C)Cc1csc(=S)[nH]1
    -23% | -26%
CC(C)CC1Nc2ncnc(N3CCN(c4ccccc4)CC3)c2N(Cc2ccc(Cl)cc2)C1=O (stereo not given)
    ? | -22%
Clc1ccc(COc2ccccc2CNCc2cccnc2)cc1
    -11% | -7%
CCOC(=O)c1c(NC(C)=O)sc(/C(C)=N/Nc2ccc(C(=O)O)cc2)c1C
    -16% | -14%
Cc1ccccc1S(=O)(=O)Cc1ccc(C(=O)NCc2cccs2)o1
    -16% | -27%
Cc1sc2nc(CSc3nnc(Cc4cccs4)n3C3CCCCC3)[nH]c(=O)c2c1C
    -17% | -6%
COc1ccc(/C=C2\N=C(C)OC2=O)cc1[N+](=O)[O-]
    i[7.34 µM] | -20%[7.34 µM]
C=CCn1c(SCC(=O)N2CCOCC2)nc(O)c(Cc2ccccc2)c1=O
    nt | -13%
Cc1ccc(SCc2ccc(C(=O)N3CCCCC3)cc2)cc1
    i | -16%
Cc1cccc(N(CC(=O)NCc2ccco2)C(=O)CCC(=O)Nc2ccccn2)c1C
    i | -11%
O=C1Nc2ccccc2/C1=C/c1ccccc1F
    -10% | -24%
CC(=O)Nc1ccc(-c2cc(NC(C)=O)n(-c3ccccc3)n2)cc1
    nt | -16%
COc1ccc(C)cc1NC(=O)CN1C(=O)COc2ccc(S(=O)(=O)NC3CCCC3)cc21
    -6% | -2%
CN=C(Nc1cccc(Cl)c1)SC1CC(=O)N(c2ccc(OC)cc2)C1=O (stereo not given)
    -12% | -13%
COc1ccc(S(=O)(=O)CCC(=O)NCCc2ccc(C)cc2)cc1
    i | -12%
COc1ccc(-n2nc3c(c2NC(=O)COc2ccccc2OC)CS(=O)(=O)C3)cc1
    3% | -10%
CC(=O)c1cccc(NC(=O)C2CCN(S(=O)(=O)c3ccccc3)CC2)c1
    0% | -1%
NC(=O)c1ccsc1NC(=O)COC(=O)c1ccncc1
    i | -7%
COc1ccc(NS(=O)(=O)c2ccc3[nH]c(=O)ccc3c2)cc1OC
    -11% | -2%
COc1cc(/C=C/c2nc3ccccc3c(=O)n2-c2ccccc2O)ccc1O
    ? | 20%
CCOCCCNc1ncc2c(n1)CC(c1ccc(C)cc1)CC2=O (stereo not given)
    nt | -10%
O=C(COc1ccc2cc(Br)ccc2c1Br)N1CCOCC1
    ? | -29%
COc1cccc(C(C)NC(=O)c2ccncc2)c1 (stereo not given)
    -7% | -13%
O=C(NCN1C(=O)C2C3C=CC(C3)C2C1=O)Nc1ccccc1O (stereo not given)
    -4% | 2%
CN1C(=O)NC(=O)/C(=C/c2ccc(C(=O)O)cc2)C1=O
    1% | 18%
CCOC(=O)C1CCCN(S(=O)(=O)c2ccc(-n3cnnn3)c(C)c2)C1 (stereo not given)
    -9% | -13%
CSc1ncc(CN2CCN(C3CCCCC3)C(CCO)C2)cn1 (stereo not given)
    -5% | -8%
COc1cc(-c2nnc(COC(=O)c3cc(C)no3)o2)cc(OC)c1OC
    -10% | 0%
CC(=O)c1ccc(O)c(CO)c1
    nt | -1%
Nc1ccc(/C=C/c2cccc3cccnc23)cc1
    -8% | -21%
COc1ccc(CCC(=O)NC2CC(=O)N(c3ccc(C)cc3)C2)cc1 (stereo not given)
    -10%[7.34 µM] | -12%[7.34 µM]
COc1ccccc1/C=C/C=N/NC(=O)CC1C(=O)NN=C1C (stereo not given)
    -4% | 4%
O=C(COC(=O)c1cccnc1Cl)NCCc1ccc(F)cc1
    i | 1%
OCc1nc2c(ccc3ccccc32)[nH]1
    -5% | -15%

(more compounds)
The line under a structure holds: VACV mCherry inh | VACV Venus inh
CCOC(=O)CC1=C(C(=O)OCC)C(c2cccnc2)C(C#N)=C(N)O1 (stereo not given)
    nt | -14%
Cc1cccc(NC(=O)c2sc3nc(-c4cc5ccc(O)cc5oc4=O)[nH]c(=O)c3c2C)c1
    -20% | 70%[activator]
CCc1nn(CCCC(=O)NCc2ccc(C)cc2)c(=O)c2cc3occc3n12
    3% | -15%
Cc1cc(C)cc(OCC(=O)NNC(=O)c2ccoc2C)c1
    -14% | -13%
CCC(CC)Nc1ccc(C(CC(N)=O)NC(=O)c2ccccc2)cc1[N+](=O)[O-] (stereo not given)
    -4% | -18%
CCOC(=O)c1ccccc1NC(=O)N1CCC(CN2CCCCC2)CC1
    -8% | 0%
COc1cc(NS(=O)(=O)c2ccc3oc(=O)c4ncn(C)c4c3c2)cc(OC)c1
    -2% | -4%
CCOC(=O)/C(=N\Nc1ccc(Br)cc1)N1CCN(c2ccccc2OC)CC1
    2% | 1%
CCOC(=O)c1c(NC(=O)CSc2nnnn2CC)sc(C)c1C
    -26% | -9%

Entries above with four or more nitrogen atoms, in the order listed:
The line under a structure holds: VACV mCherry inh | VACV Venus inh
COc1ccccc1CNc1ncnc2c1nnn2Cc1ccccc1
    -13% | -9%
N#Cc1ccc(NC(=O)NN2CCCCCC2)cc1
    -29% | -17%
Nc1ccn([C@@H]2O[C@H](C(=O)N3CCSC3)[C@@H](O)[C@H]2O)c(=O)n1
    51%[activator] | 2%
COCOc1ccc(-c2ncc(OCCN3CCCC3=O)nc2NC(=O)c2cc3ccccc3s2)cc1
    35%[activator] | -10%
Cc1nn(Cc2ccc(F)cc2)c2sc(C(=O)Nc3ccccc3N3CCOCC3)cc12
    -14% | -5%
Cc1ccc(N2CC(C(=O)N3CCC(C(=O)Nc4nncs4)CC3)CC2=O)cc1 (stereo not given)
    -13% | -10%
CC[C@@H](C)[C@@H](C(=O)N1CCN(C(=O)OC(C)(C)C)CC1)n1cc(CCCCNC(=O)OC(C)(C)C)nn1
    -2% | -3%
N/C(=N\O)c1ccc(N2CCN(c3ncccc3C(F)(F)F)CC2)nc1
    -21%[7.34 µM] | 2%[7.34 µM]
CC(=O)Nc1ccc2nc(CN3CCN(CC=C(C)C)C(CCO)C3)ccc2c1 (stereo not given)
    i | 8%
COc1ccc(C(N)c2csc(NC(=O)Nc3cccc(C(F)(F)F)c3)n2)cc1 (stereo not given)
    ? | ?
CC(C)CC1Nc2ncnc(N3CCN(c4ccccc4)CC3)c2N(Cc2ccc(Cl)cc2)C1=O (stereo not given)
    ? | -22%
Cc1sc2nc(CSc3nnc(Cc4cccs4)n3C3CCCCC3)[nH]c(=O)c2c1C
    -17% | -6%
Cc1cccc(N(CC(=O)NCc2ccco2)C(=O)CCC(=O)Nc2ccccn2)c1C
    i | -11%
CC(=O)Nc1ccc(-c2cc(NC(C)=O)n(-c3ccccc3)n2)cc1
    nt | -16%
CCOC(=O)C1CCCN(S(=O)(=O)c2ccc(-n3cnnn3)c(C)c2)C1 (stereo not given)
    -9% | -13%
CSc1ncc(CN2CCN(C3CCCCC3)C(CCO)C2)cn1 (stereo not given)
    -5% | -8%
COc1ccccc1/C=C/C=N/NC(=O)CC1C(=O)NN=C1C (stereo not given)
    -4% | 4%
CCc1nn(CCCC(=O)NCc2ccc(C)cc2)c(=O)c2cc3occc3n12
    3% | -15%
CCC(CC)Nc1ccc(C(CC(N)=O)NC(=O)c2ccccc2)cc1[N+](=O)[O-] (stereo not given)
    -4% | -18%
CCOC(=O)/C(=N\Nc1ccc(Br)cc1)N1CCN(c2ccccc2OC)CC1
    2% | 1%
CCOC(=O)c1c(NC(=O)CSc2nnnn2CC)sc(C)c1C
    -26% | -9%
